High-throughput results from PubChem BioAssay.
Env fusion inh = inhibitors of HIV-1 Env-driven cell-cell fusion, primary screen, HeLa-JRFL effector, CEM21 target cells, luciferase | inhibition, % at 12.3 µM | 360,000 compounds, 1.1% hits | AID 651610, 2012;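 active = mean replicate inhibition score of at least 50 and every replicate individually at or above 50; inconclusive = only one of the two criteria met; inactive = mean below 50 and not all replicates reaching 50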;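 also: 0% = plate neutral controls and 100% = maraviroc near 300 nM; one replicate is shown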
UUG fidelity = modulators of yeast start codon fidelity, primary screen, whole organism, S. cerevisiae, single point, plate reader. S. cerevisiae UUG-firefly luciferase reporter, luminescence/redox ratio. activity score, % at 18.7 µM. 350,000 compounds, 0.13% hits;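 active = replicate mean at a twofold rise or more, about +100% in these data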;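 also: firefly luciferase made from a UUG start codon reports start codon fidelity; reporter light over untreated wells divided by growth signal over untreated wells; some hits fall short of that in this replicate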
Starred values were filed as active, the others as inactive; ? = inconclusive; [ ] = another dose, or the depositor's remark.

Env fusion inh | UUG fidelity | compound
33[16.7 µM] | 1 | C[C@@H]1CCCCO[C@H](CN(C)Cc2ccc(C(F)(F)F)cc2)[C@H](C)CN([C@H](C)CO)C(=O)c2cc(NC(=O)NC3CCCCC3)ccc2O1
-16[16.7 µM] | 1 | C[C@@H]1CCCCO[C@H](CN(C)Cc2ccccc2)[C@@H](C)CN([C@@H](C)CO)C(=O)c2cc(NC(=O)C3CCCCC3)ccc2O1
-50[16.7 µM] | -7 | C[C@H]1CCCCO[C@H](CN(C)S(=O)(=O)c2cccs2)[C@@H](C)CN([C@@H](C)CO)C(=O)c2cc(NS(=O)(=O)c3ccc(F)cc3)ccc2O1
-14[16.7 µM] | 18 | CCCN(C)C[C@@H]1Oc2cc(C#Cc3ccccc3)ccc2S(=O)(=O)N([C@@H](C)CO)C[C@@H]1C
-20[16.7 µM] | 34 | O=C(NC1CCCCC1)N[C@H]1CC[C@H](CCNS(=O)(=O)c2ccc(Cl)cc2)O[C@@H]1CO
-16[16.7 µM] | 10 | CC(C)NC(=O)N(C)C[C@@H]1OCCCC[C@H](C)Oc2ccc(NS(C)(=O)=O)cc2C(=O)N([C@H](C)CO)C[C@@H]1C
-3[16.7 µM] | -12 | C[C@@H]1CN([C@H](C)CO)C(=O)c2cc(C#Cc3cccnc3)cnc2O[C@@H]1CN(C)C(=O)CC1CC1
-5[16.7 µM] | -13 | CC(C)NC(=O)Nc1ccc2c(c1)C(=O)N([C@H](C)CO)C[C@H](C)[C@H](CN(C)S(=O)(=O)c1cn(C)cn1)OCCCC[C@@H](C)O2
6[16.7 µM] | -12 | O=C(C[C@@H]1C=C[C@H](NS(=O)(=O)c2ccc(F)cc2)[C@@H](CO)O1)N1CCc2ccccc2C1
-2[16.7 µM] | -7 | O=C(Nc1ccc(Cl)cc1)N[C@@H]1CC[C@@H](CCn2cc(C3(O)CCCC3)nn2)O[C@H]1CO
40[16.7 µM] | 0 | COC(=O)C[C@@H]1CC[C@H]2[C@H](COc3ccc(NC(=O)Nc4cccc(C)c4)cc3C(=O)N2C)O1
-69[16.7 µM] | 12 | C[C@@H]1CCCCO[C@@H](CN(C)C(=O)Cc2ccccc2)[C@@H](C)CN([C@@H](C)CO)C(=O)c2cc(NC(=O)c3ccccc3)ccc2O1
-11[16.7 µM] | -13 | CN(C)CCCNC(=O)C[C@@H]1CC[C@H](NS(=O)(=O)c2ccccc2)[C@H](CO)O1
4[16.7 µM] | 14 | C[C@H](CO)N1C[C@H](C)[C@H](CN(C)CC2CCCCC2)Oc2ccc(NC(=O)CCN3CCOCC3)cc2C1=O
-16[16.7 µM] | 7 | CC(C)C(=O)Nc1ccc2c(c1)C(=O)N(C)[C@@H]1CC[C@H](CC(=O)NCC3CC3)O[C@@H]1CO2
4[16.7 µM] | -5 | COc1ccc(-c2cnc3c(c2)C(=O)N([C@H](C)CO)C[C@H](C)[C@H](CN(C)Cc2ccc(C(=O)O)cc2)O3)cc1
-35[16.7 µM] | -1 | C[C@@H]1CN([C@@H](C)CO)C(=O)c2cc(NS(=O)(=O)c3ccccc3)ccc2O[C@@H](C)CCCCO[C@@H]1CN(C)Cc1ccccc1
11[16.7 µM] | -6 | C[C@H]1CN([C@@H](C)CO)C(=O)c2cccc(NC(=O)Nc3ccc(F)cc3)c2O[C@@H]1CN(C)C(=O)Nc1ccc(C(F)(F)F)cc1
-6[16.7 µM] | -8 | COc1cccc(CNC(=O)C[C@H]2CC[C@H](NC(=O)C3CC3)[C@@H](CO)O2)c1
2[16.7 µM] | 10 | O=C(NCC[C@H]1CC[C@H](NS(=O)(=O)c2ccccc2)[C@@H](CO)O1)c1cc(Cl)cc(Cl)c1
13[16.7 µM] | 14 | COc1ccc(S(=O)(=O)Nc2cccc3c2O[C@H](CN(C)Cc2ccc(Oc4ccccc4)cc2)[C@H](C)CN([C@H](C)CO)C3=O)cc1
3[16.7 µM] | 2 | C[C@H](CO)N1C[C@H](C)[C@H](CN(C)C(=O)CC2CC2)Oc2ncc(-c3ccc(C#N)cc3)cc2C1=O
19[16.7 µM] | -15 | C[C@@H]1CCCCO[C@H](CN(C)C(=O)Nc2ccc(C(F)(F)F)cc2)[C@H](C)CN([C@H](C)CO)C(=O)c2cc(NC(=O)CCC(F)(F)F)ccc2O1
-12[16.7 µM] | 33 | O=C1CS(=O)(=O)C(c2ccccc2)N1c1cccc(Cl)c1 (stereo unspecified)
-11[16.7 µM] | -7 | CC(C)c1cn(CC[C@H]2CC[C@H](NS(=O)(=O)c3ccccc3)[C@H](CO)O2)nn1

(next part)
Env fusion inh | UUG fidelity | compound
6[16.7 µM] | 5 | C[C@@H]1CN([C@H](C)CO)C(=O)c2cccc(NC(=O)Nc3ccccc3)c2O[C@H]1CN(C)C(=O)Nc1ccc(C(F)(F)F)cc1
-11[16.7 µM] | -2 | CCCNC(=O)N(C)C[C@H]1Oc2ncc(C3=CCCC3)cc2C(=O)N([C@@H](C)CO)C[C@@H]1C
? | -2 | C[C@@H]1CN([C@H](C)CO)C(=O)c2cc(NC(=O)Nc3ccc4c(c3)OCO4)ccc2O[C@@H](C)CCCCO[C@@H]1CN(C)Cc1ccc(C(F)(F)F)cc1
-26[16.7 µM] | -3 | COc1ccccc1-c1cnc2c(c1)C(=O)N([C@H](C)CO)C[C@@H](C)[C@@H](CN(C)C(=O)c1cccnc1)O2
28[16.7 µM] | 12 | CC(=O)N(C)C[C@@H]1Oc2cc(C#Cc3ccccc3)ccc2S(=O)(=O)N([C@H](C)CO)C[C@@H]1C
95*[16.7 µM] | 7 | Cc1ccc(S(=O)(=O)N(C)C[C@@H]2Oc3ccc(NC(=O)C4CCCCC4)cc3CC(=O)N([C@H](C)CO)C[C@@H]2C)cc1
-38[16.7 µM] | 4 | COc1ccc(NC(=O)Nc2cccc3c2O[C@@H](CN(C)S(=O)(=O)c2ccc(C)cc2)[C@H](C)CN([C@@H](C)CO)C3=O)cc1
-18[16.7 µM] | 2 | C[C@H](CO)N1C[C@H](C)[C@@H](CN(C)S(=O)(=O)c2ccc(Cl)cc2)OCCCC[C@H](C)Oc2ccc(NC(=O)Nc3ccc(F)cc3)cc2C1=O
2[16.7 µM] | -19 | C[C@H]1CN([C@@H](C)CO)C(=O)c2cc(-c3ccc(C#N)cc3)cnc2O[C@@H]1CN(C)Cc1cccnc1
-8[16.7 µM] | 0 | O=C(N[C@@H]1CC[C@H](CCNS(=O)(=O)c2ccc(Cl)cc2)O[C@@H]1CO)c1cnccn1
-15[16.7 µM] | -12 | CN(C)C(=O)C[C@@H]1CC[C@@H](NC(=O)NC2CCCCC2)[C@@H](CO)O1
1[16.7 µM] | 28 | COCC(=O)N(C)C[C@@H]1Oc2cc(C3=CCCCC3)ccc2S(=O)(=O)N([C@H](C)CO)C[C@@H]1C
24[16.7 µM] | -6 | C[C@@H]1CN([C@H](C)CO)C(=O)Cc2cc(N(C)C)ccc2O[C@@H]1CN(C)Cc1ccncc1
61*[16.7 µM] | 6 | C[C@H](CO)N1C[C@H](C)[C@H](CN(C)S(=O)(=O)c2cccs2)Oc2ccc(NC(=O)C3CCCCC3)cc2CC1=O
17[16.7 µM] | -3 | C[C@@H]1CN([C@@H](C)CO)C(=O)c2cc(NC(=O)Nc3cccc4ccccc34)ccc2O[C@@H](C)CCCCO[C@@H]1CN(C)C(=O)Nc1ccccc1
4[16.7 µM] | -8 | C[C@@H]1CCCCO[C@H](CN(C)Cc2ccncc2)[C@@H](C)CN([C@H](C)CO)C(=O)c2cc(NS(=O)(=O)c3ccccc3)ccc2O1
-39[16.7 µM] | 2 | C/C=C/c1cnc2c(c1)C(=O)N([C@@H](C)CO)C[C@H](C)[C@@H](CN(C)C(=O)Nc1ccc(C(F)(F)F)cc1)O2
16[16.7 µM] | -10 | Cc1ccc(S(=O)(=O)N(C)C[C@H]2Oc3ccc(NC(=O)C4CCCCC4)cc3C(=O)N([C@@H](C)CO)C[C@H]2C)cc1
0[16.7 µM] | 4 | COc1ccc(NC(=O)Nc2ccc3c(c2)CC(=O)N([C@@H](C)CO)C[C@@H](C)[C@@H](CN(C)S(=O)(=O)c2cn(C)cn2)O3)cc1
-6[16.7 µM] | -12 | CNC[C@@H]1Oc2ccc(NS(C)(=O)=O)cc2C(=O)N([C@H](C)CO)C[C@H]1C
-3[16.7 µM] | -8 | C[C@@H]1CN([C@H](C)CO)C(=O)c2cc(C#C[C@@H](C)O)cnc2O[C@@H]1CN(C)C(=O)CN1CCOCC1
6[16.7 µM] | -22 | CN(C)CCCNC(=O)C[C@@H]1CC[C@H](NC(=O)c2ccccc2F)[C@@H](CO)O1
10[16.7 µM] | 6 | C[C@@H]1CN([C@@H](C)CO)C(=O)Cc2cc(NS(=O)(=O)c3cccs3)ccc2O[C@@H]1CN(C)Cc1ccc(Cl)c(Cl)c1
-2[16.7 µM] | -4 | C[C@@H]1CN([C@H](C)CO)C(=O)Cc2cc(NC(=O)Cc3cn(C)c4ccccc34)ccc2O[C@H]1CN(C)Cc1ccccc1
83*[16.7 µM] | -9 | Cc1noc(C)c1S(=O)(=O)N(C)C[C@@H]1OCCCC[C@@H](C)Oc2ccc(NC(=O)Nc3ccc(C(F)(F)F)cc3)cc2C(=O)N([C@H](C)CO)C[C@H]1C

Quoted at random: 2 compounds from above
Env fusion inh | UUG fidelity | compound
-26[16.7 µM] | -3 | COc1ccccc1-c1cnc2c(c1)C(=O)N([C@H](C)CO)C[C@@H](C)[C@@H](CN(C)C(=O)c1cccnc1)O2
83*[16.7 µM] | -9 | Cc1noc(C)c1S(=O)(=O)N(C)C[C@@H]1OCCCC[C@@H](C)Oc2ccc(NC(=O)Nc3ccc(C(F)(F)F)cc3)cc2C(=O)N([C@H](C)CO)C[C@H]1C

Marked active in Env fusion inh, of those listed so far:
Env fusion inh | UUG fidelity | compound
95*[16.7 µM] | 7 | Cc1ccc(S(=O)(=O)N(C)C[C@@H]2Oc3ccc(NC(=O)C4CCCCC4)cc3CC(=O)N([C@H](C)CO)C[C@@H]2C)cc1
61*[16.7 µM] | 6 | C[C@H](CO)N1C[C@H](C)[C@H](CN(C)S(=O)(=O)c2cccs2)Oc2ccc(NC(=O)C3CCCCC3)cc2CC1=O
83*[16.7 µM] | -9 | Cc1noc(C)c1S(=O)(=O)N(C)C[C@@H]1OCCCC[C@@H](C)Oc2ccc(NC(=O)Nc3ccc(C(F)(F)F)cc3)cc2C(=O)N([C@H](C)CO)C[C@H]1C

Complete entries, quoted from the list:
Record of `C[C@@H]1CN([C@H](C)CO)C(=O)c2cc(NC(=O)Nc3ccc4c(c3)OCO4)ccc2O[C@@H](C)CCCCO[C@@H]1CN(C)Cc1ccc(C(F)(F)F)cc1` → Env fusion inh: ?; UUG fidelity: -2
Record of `C[C@@H]1CN([C@@H](C)CO)C(=O)Cc2cc(NS(=O)(=O)c3cccs3)ccc2O[C@@H]1CN(C)Cc1ccc(Cl)c(Cl)c1` → Env fusion inh: 10[16.7 µM]; UUG fidelity: 6
Record of `C[C@H](CO)N1C[C@H](C)[C@@H](CN(C)S(=O)(=O)c2ccc(Cl)cc2)OCCCC[C@H](C)Oc2ccc(NC(=O)Nc3ccc(F)cc3)cc2C1=O` → Env fusion inh: -18[16.7 µM]; UUG fidelity: 2

Additional records
Env fusion inh | UUG fidelity | compound
-15[16.7 µM] | -8 | O=C(Nc1ccc2c(c1)[C@H]1C[C@H](CC(=O)N3CCOCC3)O[C@H](CO)[C@H]1O2)C1CCC1
-11[16.7 µM] | 9 | COC(=O)C[C@H]1CC[C@@H]2[C@H](COc3ccc(NS(=O)(=O)c4cccc(F)c4)cc3C(=O)N2C)O1
-3[16.7 µM] | -11 | CCCc1cn(CC[C@H]2CC[C@H](NC(=O)Cc3cccnc3)[C@H](CO)O2)nn1
4[16.7 µM] | 16 | CCCN(C)C[C@H]1OCCCC[C@@H](C)Oc2ccc(NC(=O)NC3CCCCC3)cc2C(=O)N([C@@H](C)CO)C[C@H]1C
-5[16.7 µM] | -23 | COCc1cn(CC[C@H]2CC[C@@H](NC(=O)Nc3ccc4c(c3)OCO4)[C@@H](CO)O2)nn1
7[16.7 µM] | 7 | Cc1noc(C)c1S(=O)(=O)N(C)C[C@H]1OCCCC[C@H](C)Oc2ccc(NC(=O)NC3CCCCC3)cc2C(=O)N([C@@H](C)CO)C[C@@H]1C
-8[16.7 µM] | 13 | C[C@@H]1CN([C@H](C)CO)C(=O)Cc2cc(NC(=O)C3CCCCC3)ccc2O[C@@H]1CN(C)S(=O)(=O)c1ccc(Cl)cc1
-5[16.7 µM] | 0 | C[C@@H]1CN([C@@H](C)CO)C(=O)c2cc(-c3cccc(F)c3)cnc2O[C@H]1CN(C)Cc1cncnc1
4[16.7 µM] | -6 | C[C@@H]1CN([C@H](C)CO)S(=O)(=O)c2ccc(-c3cccnc3)cc2O[C@@H]1CN(C)C(=O)c1ccc2c(c1)OCO2
-11[16.7 µM] | 9 | C[C@H](CO)N1C[C@H](C)[C@@H](CN(C)C(=O)Nc2ccccc2)Oc2ccc(NC(=O)Nc3ccccc3)cc2CC1=O
23[16.7 µM] | -5 | Cc1ccccc1-c1ccc2c(c1)O[C@@H](CN(C)Cc1ccncc1)[C@H](C)CN([C@@H](C)CO)S2(=O)=O
-69[16.7 µM] | -8 | COc1ccc(S(=O)(=O)Nc2cccc3c2O[C@@H](CN(C)S(=O)(=O)c2ccc(Cl)cc2)[C@@H](C)CN([C@@H](C)CO)C3=O)cc1
-13[16.7 µM] | 1 | COCC(=O)Nc1ccc2c(c1)C(=O)N(C)C[C@@H](OC)[C@@H](C)CN(Cc1ccccc1)[C@H](C)CO2
-2[16.7 µM] | -3 | O=C(N[C@@H]1CC[C@@H](CC(=O)N2CCC(Cc3ccccc3)CC2)O[C@H]1CO)c1cnccn1
-2[16.7 µM] | -1 | Cc1noc(C)c1NC(=O)N(C)C[C@H]1OCCCC[C@@H](C)Oc2ccc(NC(=O)CCC(F)(F)F)cc2C(=O)N([C@H](C)CO)C[C@H]1C

These rows are one share of the data, so the mix of outcomes need not match the whole.
